TRPV1 potentiator = potentiators of human vanilloid receptor 1 (TRPV1). Q8NER1. TRPV1-expressing cells, Fluo-8 calcium influx, capsaicin EC20 potentiation; host cell line not named in the record; control for the full effect not named in the record. potentiation, % at 8.33 µM. 0.02% of 320,000 active. AID 540277; active means potentiation above 80%; inconclusive means 30% to 80%; inactive means below 30%; further: 0% is about no effect
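Fluo-8 calcium influx in TRPV1-expressing cells, kinetic read (ex 480/em 520 nm). Compound added and read 3 min for agonist activity, followed by capsaicin at EC20 final and 2 min further read for enhancement.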
Sfp PPTase inh = blocks B. subtilis Sfp PPTase activity; Q9F4F7; Biochemical Sfp PPTase activity, qHTS; Potency, µM, for the others: max response, negative = inhibition, actives largely listed as inhibitors; 3.5% of 310,000 active; AID 1490; active means well fitted inhibition curve with a large enough effect; inconclusive means small, poorly fitted or top-dose-only effect, or another doubt; inactive means no such curve, though single readings can be large or run the other way;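 further: the enzyme is Sfp with the accession as filed and its product quenches rhodamine fluorescence; potency means the concentration at half of the fitted maximal effect; 0% = enzyme reaction without inhibitor and -100% = no enzyme wells; top concentration of the series not given in the record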
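Fluorescence-quenching assay with 15 nM Sfp, 5 uM rhodamine-CoA and 12.5 uM BHQ-2-labelled ybbR peptide in pH 7.6 Hepes/MgCl2 buffer. Enzyme was pre-incubated with compound for 15 min at room temperature. Rate was taken from the 30-min fluorescence change (525/598 nm).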
D2 agonist = activates the human D2 dopamine receptor | P14416 | DiscoveRx PathHunter D2 beta-arrestin, luminescence, 90 min; 100% = 57 uM dopamine signal | activation, % (concentration not given with the values) | 0.084% of 360,000 active | AID 624465; in the data active = activation above about 40%; inconclusive = about 15% to 40%; inactive = below about 15%; further: compound concentration not given in the record; the text of the record calls up to 30% inactive
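Agonist mode: compounds alone added to overnight-plated D2 PathHunter cells for 90 min at 37 C, with 57 uM final dopamine (EC100) defining full response. Beta-arrestin recruitment detected by chemiluminescent reagent, read after 1 h at ambient temperature.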
Six1-Eya2 blk = Six1/Eya2 interaction inhibition. 0.56% of 360,000 active. activity change, % (no concentration beside the values). AlphaScreen GST-Six1/His-Eya2 binding, biochemical; stronger effect = lower value; control for the full effect not named in the record. AID 651725. Q15475+O00167; in the data active = activity change below about -65%; inconclusive = about -30% to -65%; inactive = above about -30%; further: on the % scale 0 is the no-effect control and ±100 the full control effect; compound concentration not given in the record
Target sequence (O00167 whole entry, looked up): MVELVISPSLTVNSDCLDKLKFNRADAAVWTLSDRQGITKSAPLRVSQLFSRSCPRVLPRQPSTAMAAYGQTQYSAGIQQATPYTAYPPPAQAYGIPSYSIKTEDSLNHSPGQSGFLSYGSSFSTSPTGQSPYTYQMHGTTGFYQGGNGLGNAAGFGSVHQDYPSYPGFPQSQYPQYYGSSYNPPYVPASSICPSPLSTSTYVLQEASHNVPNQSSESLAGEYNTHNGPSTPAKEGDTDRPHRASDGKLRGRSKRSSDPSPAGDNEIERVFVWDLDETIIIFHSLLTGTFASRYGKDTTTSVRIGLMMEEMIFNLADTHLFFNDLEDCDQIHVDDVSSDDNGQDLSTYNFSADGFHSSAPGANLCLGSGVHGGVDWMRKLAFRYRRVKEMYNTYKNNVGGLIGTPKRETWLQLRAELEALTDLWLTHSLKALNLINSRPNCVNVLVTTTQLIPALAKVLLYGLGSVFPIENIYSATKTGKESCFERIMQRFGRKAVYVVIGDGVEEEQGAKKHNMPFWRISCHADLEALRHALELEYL
Target sequence (Q15475 whole entry, looked up): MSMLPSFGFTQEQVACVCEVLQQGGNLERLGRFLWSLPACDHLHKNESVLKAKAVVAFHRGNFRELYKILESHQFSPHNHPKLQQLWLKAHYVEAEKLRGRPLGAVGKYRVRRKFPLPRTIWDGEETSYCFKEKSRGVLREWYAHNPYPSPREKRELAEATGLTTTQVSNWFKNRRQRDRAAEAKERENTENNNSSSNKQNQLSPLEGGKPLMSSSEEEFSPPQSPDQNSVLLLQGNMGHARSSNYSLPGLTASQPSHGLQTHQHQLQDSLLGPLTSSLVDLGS
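Compounds are tested against tagged Six1 and Eya2 proteins bridged by glutathione donor and nickel acceptor beads; after a one-hour incubation at 37 °C without light, AlphaScreen emission is recorded.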
D2 potentiator = human D2 receptor positive allosteric modulation; AID 624464; P14416; DiscoveRx D2 beta-arrestin cells, luminescence, 90 min; 100% = 57 uM dopamine signal; 0.23% of 360,000 active; potentiation, % (no concentration beside the values); active = potentiation of 50% or more; inconclusive = 30% to 50%; inactive = 30% or less;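 further: compound concentration not given in the record; tested on top of an EC20 dose of dopamine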
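PathHunter beta-arrestin assay in DiscoveRx D2 cells. Compounds were added with an EC20 of dopamine (50 nM final) for 90 min at 37 deg C. Luminescence was read 1 h after detection reagent, with 57 uM dopamine as the EC100 control.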
CtBP-E1A inh = CtBP/E1A binding inhibition; AlphaScreen GST-E1A/His-CtBP binding, 1536-well; stronger effect = lower value; control for the full effect not named in the record; 0.49% of 340,000 active; activity change, % (concentration not given with the values); in the data active means activity change below about -65%; inconclusive means about -30% to -65%; inactive means above about -30%; further: on the % scale 0 is the no-effect control and ±100 the full control effect
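GST-E1A and His-tagged CtBP (125 nM each as 5X stock) were preincubated with pin-transferred compound for 2 h at 37 °C in the dark, then glutathione donor and nickel acceptor beads were added for 1 h before AlphaScreen reading.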
PINK1 modulator = changes PINK1 expression; PINK1 immunofluorescence, high-content cytometry, 24 h; Potency, µM (doses to about 76.6 µM), without a hit: top-dose activation (PINK1 increase), actives largely listed as activators; 0.2% of 410,000 active; AID 624263; active = well fitted activation curve with a large enough effect; inconclusive = small, poorly fitted or top-dose-only effect; inactive = flat fitted curve, though single readings scatter; cell line not stated here;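 further: potency means the concentration at half of the fitted maximal effect; % of control where 0% means no effect; nearly all actives have a fitted effect of over 65% in size; a mitochondrial uncoupler was the plate control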
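Measures PINK1 amount and localization on or inside mitochondria by immunofluorescence. Stable cells get compounds at 5 concentrations for 24 hours before fixation and staining; CCCP controls included.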
Starred values were filed as active, the others as inactive; ? = inconclusive; nt = no result given; & = joins results of further samples; [ ] = dose if it differs, or a comment.

SMILES	TRPV1 potentiator	Sfp PPTase inh	D2 agonist	Six1-Eya2 blk	D2 potentiator	CtBP-E1A inh	PINK1 modulator
CCCCn1c(O)c(/C=N/N2CCOCC2)c(=O)[nH]c1=S	-5.1	4.1%	-3.5	6.8	-12.8	nt	-0.9%
COC(=O)C1=C(c2ccc(C(C)=O)cc2)C[C@@H]2CC[C@H]1N2C(=O)NCCOc1ccccc1Cl	8.1	nt	-2.1	-4.7	-1.4	1.5	0.1%
Cn1c(O)c(C(=N)COc2ccccc2)c(=O)n(C)c1=O	nt	3.7%	-1.4	-1.6	-4.8	-3.3	?
N#Cc1c(Cl)nc(Cl)c2c1CCN(Cc1ccccc1)C2	-12.8	-8.6%	-6.8	6.1	-9.3	-0.8	7.3%
O=c1[nH]c(=S)n(Cc2ccc(F)cc2)c(O)c1C=NCCCn1ccnc1	5.7	13.0%	-5.9	7.6	6.0	0.0	3.7%
O=c1[nH]c(=O)n(C2CCCCCC2)c(O)c1C=NCc1cccnc1	-4.7	21.9%	-5.7	-7.6	-6.1	1.1	0.4%
O=C(Nc1ccc(Cl)cc1)OC1CN2CCC1CC2 (configuration not stated)	-24.5	2.2%	-4.2	7.6	-16.7	-3.2	0.7%
Cc1cccc(NC2=NCCCS2)c1	2.1	11.2%	-2.7	5.7	-14.4	nt	0.8%
CC1CN1c1cc2c(c3c1ccn3C)C1CCC2C1 (configuration not stated)	nt	nt	8.3	-16.7	-0.8	-15.7	2.3%
NCCc1c[nH]c2ccc(C(N)=O)cc12	-12.8	20.5%&8.1%	-6.1	0.9	-1.5	3.4	-0.7%
CC(C)C(=O)Nc1ccc(N2CCN(C)CC2)c(F)c1	?	-8.9%	-4.5	6.3	-6.3	-18.7	-2.0%
CN1CC(C(=O)c2ccc(Cl)cc2)C(c2ccc(Cl)cc2Cl)C1 (configuration not stated)	-4.8	?	4.3	-14.8	-8.9	-10.6	18.9%
COC(=O)c1ccc(NC(=O)NC(=O)Oc2ccccc2)cc1	-7.4	nt	3.9	2.6	-5.1	-1.7	1.6%
COc1cc2c(cc1OC)C1[C@H]3C(=CC[C@H]1OC2O)CCN3C (some centres not stated)	nt	nt	0.0	3.0	-118.7	5.6	2.8%
Cc1ccccc1NC(=O)Cc1nc(COC(=O)Cc2ccccc2)cs1	-15.0	nt	-7.9	0.0	-2.9	0.7	-1.4%
COc1ccccc1CCNC1CCCCCC1	?	-0.7%	-3.9	27.7	-12.8	1.4	1.2%
CC(C)NC(C)Cc1ccc(I)cc1 (configuration not stated)	-4.5	4.2%	3.0	0.1	-21.5	5.4	-0.5%
O=P(O)(Oc1ccccc1)OC(c1ccccc1)C(F)(F)F (configuration not stated)	2.9	23.9%	-2.6	-4.4	4.8	-9.5	2.1%
CCc1n[nH]c(CCN)n1	-0.8	-16.5%	-5.6	6.3	-5.1	8.2	-1.3%
CC(C)(C)C(O)C(Oc1ccc(Cl)cc1)n1cncn1 (configuration not stated)	1.2	9.5%	-4.6	9.5	-3.6	-21.5	2.1%
c1ccc(-c2nnc(C3CC(c4cccnc4)=NO3)o2)cc1 (configuration not stated)	-4.2	-7.5%	4.4	2.3	-12.9	2.1	0.3%
CC(C#N)CCC#N (configuration not stated)	2.9	nt	-4.0	-1.3	-4.1	1.8	1.2%
COc1ccc(C(c2nnnn2C(C)(C)C)N2CCC3(CC2)C(=O)NCN3c2ccccc2)cc1 (configuration not stated)	nt	nt	1.7	-10.0	-3.8	-4.2	-0.7%
Cc1ccc2c(c1)cc1c(=O)n(CC(=O)N3CCC4(CC3)OCCO4)nc(C)n12	2.8	21.7%	-1.3	0.0	1.5	nt	2.7%
Cc1ccccc1NC1(C#N)CCCCC1	8.4	12.5%	-5.4	-2.5	-3.9	nt	2.3%

Five records drawn at random from those above, as already listed:
SMILES	TRPV1 potentiator	Sfp PPTase inh	D2 agonist	Six1-Eya2 blk	D2 potentiator	CtBP-E1A inh	PINK1 modulator
COC(=O)c1ccc(NC(=O)NC(=O)Oc2ccccc2)cc1	-7.4	nt	3.9	2.6	-5.1	-1.7	1.6%
Cc1cccc(NC2=NCCCS2)c1	2.1	11.2%	-2.7	5.7	-14.4	nt	0.8%
c1ccc(-c2nnc(C3CC(c4cccnc4)=NO3)o2)cc1 (configuration not stated)	-4.2	-7.5%	4.4	2.3	-12.9	2.1	0.3%
CN1CC(C(=O)c2ccc(Cl)cc2)C(c2ccc(Cl)cc2Cl)C1 (configuration not stated)	-4.8	?	4.3	-14.8	-8.9	-10.6	18.9%
Cc1ccc2c(c1)cc1c(=O)n(CC(=O)N3CCC4(CC3)OCCO4)nc(C)n12	2.8	21.7%	-1.3	0.0	1.5	nt	2.7%

Additional compounds follow:
SMILES	TRPV1 potentiator	Sfp PPTase inh	D2 agonist	Six1-Eya2 blk	D2 potentiator	CtBP-E1A inh	PINK1 modulator
CC=CC(C)=CC(C)C(=O)CC(O)CC1CC(=O)NC(=O)C1 (configuration not stated)	nt	nt	-0.1	-2.4	-8.6	0.1	0.8%
CN(C)c1ccc(C(=O)N/N=C/C23CC[C@@H](O)CC2(O)CC[C@@H]2[C@@H]3CCC3(C)C(C4=CC(=O)OC4)CCC23O)cc1 (some centres not stated)	14.2	7.2%	-7.0	3.2	3.7	nt	-1.5%
C[N+]1(CC2COC(c3ccco3)O2)CCCCC1 (configuration not stated)	-1.8	10.0%	3.2	3.5	2.0	24.6	0.2%
CC(=NCCCO)c1c(O)n(Cc2ccccc2)c(=O)[nH]c1=O	1.6	-3.2%	-3.4	2.3	-9.6	6.5	-3.3%
Oc1ccccc1C1NCc2ccccc2-n2cccc21 (configuration not stated)	-6.9	3.3%	-1.9	-14.7	-15.4	-19.0	-1.7%
S=P(Nn1cnnc1)(c1ccc(Br)cc1)c1ccc(Br)cc1	-19.9	79.4µM*	-1.9	-3.7	-11.1	-0.3	0.9%
CCOP(=S)(OCC)Oc1cc(C)oc(=O)c1	0.6	20µM*	1.7	3.8	3.8	nt	-0.8%
CC(C)C(=O)Nc1ccc(S(=O)(=O)N2CC3CC(C2)c2cccc(=O)n2C3)cc1 (configuration not stated)	24.2	-28.1%	-2.9	-5.4	-7.5	nt	-1.1%
C[C@]12CC[C@H]3[C@@H](CCC4=CC(=O)CC[C@@H]43)[C@@H]1CC[C@@H]2O	nt	-0.9%	2.6	-4.4	-6.3	3.6	-0.6%
CC1NCCC2(O)CCCCC12 (configuration not stated)	-2.0	3.5%	-2.0	8.6	-31.3	nt	-1.3%
COC(=O)C1=C(C)N(Cc2ccco2)C(=O)/C1=C\c1ccc(N(C)C)cc1	4.5	-17.6%	-11.7	-1.1	-21.8	-4.0	?
CSc1ncc(/C=C2/C(=O)NC(=O)N(C)C2=O)cn1	-8.5	-94.8%	6.8	8.6	13.9	2.0	1.3%
CCCC(C)C(=O)NC1CCSC1=O (configuration not stated)	-18.4	12.9%	-6.3	-2.0	-5.3	-5.5	-1.9%[38.3 µM]
COc1cccc(OC)c1C(=O)NC(=S)N1C[C@H]2C[C@H](C1)c1cccc(=O)n1C2	1.4	-20.9%	-2.0	1.5	-11.7	8.8	0.5%
CCOCCCNC(=O)CN1C2CCC1CC(O)(c1ccc(OC)cc1)C2 (configuration not stated)	-2.7	-4.9%	-1.4	1.8	-16.2	6.3	0.2%[38.3 µM]
O=CC(Cl)P(=O)(N1CCCCC1)N1CCCCC1 (configuration not stated)	0.9	5.7%	-3.0	4.5	-4.4	-1.5	0.1%
O=c1[nH]c2ccccc2n1C1CCN(C(c2nnnn2-c2ccc3c(c2)OCCO3)C2CC2)CC1 (configuration not stated)	nt	nt	-3.5	-10.1	?	-10.7	-0.9%
COc1ccccc1-n1c(-c2ccoc2)nc2ccccc2c1=O	nt	-5.5%	-3.3	0.8	-1.3	-2.1	-1.3%
Cc1c(C)c2cc(Cl)c(OCC(=O)N3C[C@H]4C[C@@H](C3)c3cccc(=O)n3C4)cc2oc1=O	5.0	6.0%	-7.6	-0.2	-31.2	2.8	1.6%
C=CCn1c(O)c(/C=N/NC(=O)c2ccncc2)c(=O)[nH]c1=O	-30.0	0.0%	0.8	?	-0.8	-19.5	1.5%
O=C(c1ccccc1F)c1cn(CC(=O)N2CCCC2)c2ccccc12	?	-10.9%	-0.8	-0.2	-0.5	3.2	-1.9%
O=c1[nH]c(O)c(C=Nc2cc(F)cc(F)c2)c(=O)[nH]1	5.2	-4.2%	-5.3	3.2	-23.0	nt	-1.6%
CCCCC(=O)N/N=C/c1c(O)n(CCc2ccccc2)c(=O)[nH]c1=O	4.7	7.9%	-7.1	?	-10.7	?	-0.9%
CCCCn1c(=O)c(C(=O)Nc2ccccc2S(N)(=O)=O)c(O)c2ccccc21	-3.5	14.2%	5.8	-3.9	2.5	4.6	?
COc1ccccc1N1CCN(Cc2ccc(SC)cc2)CC1	-2.3	?	-3.2	-8.7	-81.7	nt	3.7%
Additional records follow.
SMILES	TRPV1 potentiator	Sfp PPTase inh	D2 agonist	Six1-Eya2 blk	D2 potentiator	CtBP-E1A inh	PINK1 modulator
CCN(CC)C(=O)c1ccc2c(c1)C1C(Cl)C(Sc3ccccc3[N+](=O)[O-])CC1C(C(=O)O)N2 (configuration not stated)	?	44.7µM*	1.5	?	-8.4	?	1.3%
COc1ccc(-c2nc(CS(=O)CC(=O)N3CCC4(CC3)OCCO4)c(C)o2)cc1 (configuration not stated)	1.7	13.7%	-0.1	9.4	-5.6	-0.9	nt
COC(=O)C1=C(c2ccc(OC)c(OC)c2)C[C@@H]2CC[C@H]1N2C(=O)NCc1ccco1	-8.6	nt	-2.0	2.4	-13.3	-4.0	1.4%
CSCc1nnc2n1-c1ccc(Cl)cc1C(c1ccccc1)=NC2	-0.9	6.3%	-1.5	9.6	-6.2	-13.9	5.9%
CN1c2ccc([N+](=O)[O-])cc2CC2(C(=O)NC(=O)NC2=O)C1c1ccccc1 (configuration not stated)	16.8	-4.9%	-1.2	1.1	-5.0	-0.8	2.8%
Cc1nn(Cc2ccccc2)c(C)c1C(=O)OCC(=O)Nc1cc(S(C)(=O)=O)ccc1Cl	2.7	-7.3%	-1.1	-3.6	-3.8	0.0	2.8%

An excerpt of these results, with two lines to a compound:
Screens in order – TRPV1 potentiator, Sfp PPTase inh, D2 agonist, Six1-Eya2 blk, D2 potentiator, CtBP-E1A inh, PINK1 modulator
> CN1c2ccc([N+](=O)[O-])cc2CC2(C(=O)NC(=O)NC2=O)C1c1ccccc1 (configuration not stated)
 : 16.8, -4.9%, -1.2, 1.1, -5.0, -0.8, 2.8%
> Cc1nn(Cc2ccccc2)c(C)c1C(=O)OCC(=O)Nc1cc(S(C)(=O)=O)ccc1Cl
 : 2.7, -7.3%, -1.1, -3.6, -3.8, 0.0, 2.8%

Some of the compounds tested; count on the stated rates, not on these rows.
